Compound activity: PubChem, National Center for Advancing Translational Sciences (NCATS)
GLA inh pH 4.5 – blocks human alpha-galactosidase A at pH 4.5; 230,000 tested, under 10 active; P06280; purified enzyme, 4-MU-alpha-Gal fluorescence, pH 4.5; activity change, negative = inhibition, % at 105 µM; inconclusive = small, poorly fitted or top-dose-only inhibition, or a rising curve; inactive = flat fitted curve, though single readings scatter; no compound was filed as active;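 note: 0% = full activity with enzyme and -100% = basal without enzyme; dose as in the result columns while the protocol names 77 µM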
Target sequence (P06280 whole entry, looked up): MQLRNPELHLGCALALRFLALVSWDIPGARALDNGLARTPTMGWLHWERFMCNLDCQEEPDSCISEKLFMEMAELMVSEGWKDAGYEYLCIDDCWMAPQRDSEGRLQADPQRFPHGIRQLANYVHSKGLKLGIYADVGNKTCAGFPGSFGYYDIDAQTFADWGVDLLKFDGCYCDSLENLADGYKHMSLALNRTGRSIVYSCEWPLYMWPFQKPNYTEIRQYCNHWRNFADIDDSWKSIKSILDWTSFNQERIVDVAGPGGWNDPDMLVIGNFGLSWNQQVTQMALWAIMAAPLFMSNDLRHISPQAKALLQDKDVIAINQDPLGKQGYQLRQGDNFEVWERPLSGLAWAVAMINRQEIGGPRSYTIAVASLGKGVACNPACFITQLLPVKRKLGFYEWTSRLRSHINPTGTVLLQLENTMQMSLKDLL
Rango complex inh – Rango-importin beta binding inhibition; AID 540263; Potency, µM (titrated, usually from 92.2 µM), for inactives: at the top dose inhibition of complex formation; Q14974; Rango CFP/YFP FRET sensor + importin beta, 45 min; 340,000 compounds, 0.031% hits; active = rising FRET ratio curve, often small or poorly fitted; inconclusive = mostly compound fluorescence or quenching in the first reads; inactive = flat curves in all reads;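 note: potency is the fitted concentration of half-maximal effect; 0% = DMSO wells and 100% = buffer wells lacking importin beta; nearly all actives have a fitted effect of over 15% in size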
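Inhibition scored from the CFP 486 nm/YFP 530 nm FRET ratio 45 min after adding 0.125 microM importin beta to 50 nM Rango biosensor preincubated 5 min with compound (room temperature, PBS with DTT, Tween-20, BSA). No-importin wells as positive control.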
Rango release inh – prevents RanGTP from dissociating the Rango-importin beta complex; O95149+P62826; Biochemical FRET Rango-importin beta, RanGTP-induced dissociation; Potency, µM (highest dose often 46.1 µM), without a hit: at the top dose activity change, negative = inhibition; 340,000 compounds, 0.071% hits; AID 540253; active means falling FRET ratio curve, often poorly fitted, with flat reads before Ran was added; inconclusive means other falling curves, or compound fluorescence or quenching; inactive means flat or rising ratio curve;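 note: potency is the fitted concentration of half-maximal effect; % of control where 0% means no effect; nearly all actives have a fitted effect of over 45% in size; -100% = wells without RanGTP and RCC1; the record marks most hits as doubtful in a second field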
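Rango/importin beta premix (0.1/0.25 uM final), PBS + 1 mM DTT + 0.02% Tween-20 + 0.1% BSA; cpd 5 min RT; FRET pre-read; + RanGTP-RCC1 (0.6 uM Ran, 2 mM GTP, 0.2 uM RCC1); 45 min RT; FRET post-read, ex 430, em 486/530 nm.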
miR-21 reporter – miR-21 reporter, rising signal; HeLa miR-21 FLuc reporter, luciferase, 48 h; Potency, µM (doses to about 38.3 µM), without a hit: at the highest dose reporter change, positive = more light; AID 2288; 340,000 tested, under 10 active; active = well fitted rising curve with a large enough effect; inconclusive = small, poorly fitted or top-dose-only effect; inactive = no such curve, though single readings can be large or run the other way;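 note: % of control where 0% means no effect; miR-21 action dims this reporter so a rising signal means less miR-21 action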
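HeLa cells endogenously expressing miR-21, stably carrying CMV-driven firefly luciferase with a downstream miR-21 binding site, 2000 cells/well. Titrations up to approximately 40 uM, 48 hours; luciferase luminescence read.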
* hit, by the source's call; ? = inconclusive; . = no result given; & = joins results of further samples.

SMILES	GLA inh pH 4.5	Rango complex inh	Rango release inh	miR-21 reporter
Cc1nc2ccc(N=NC3=C(O)CC(C)(C)CC3=O)cc2s1	-9.2	5.8%	0.0%	-42.1%
CC(=O)Nc1ccc(C(=O)Nc2ccc(S(=O)(=O)NCC3CCCO3)cc2)cc1 (configuration not stated)	-3.3	3.8%	0.1%	-5.0%
CCc1ccc(N=C2NC(=O)/C(=C/c3cc(OC)c(O)c(OC)c3)S2)cc1	.	?	?	-10.2%
CC1=CC(=O)[C@@H](O)[C@@H](c2ccccc2Br)N1C	.	-1.6%	7.5%	.
COc1ccc2c(c1OC)C(=O)OC2CC(=O)c1ccc(O)cc1 (configuration not stated)	-4.7	3.2%	-21.8%	-4.5%
O=C(CNc1cccc([N+](=O)[O-])c1)N/N=C/c1ccc(F)cc1	-0.7	-1.5%	-1.5%	-4.4%
CC1(C)Cc2c(cnn2-c2ccccc2)C(NC(=O)C2(C(N)=O)CC2)C1 (configuration not stated)	.	-1.3%	28.2%	-1.0%
CCOC(=O)C(C)(C)N(Cc1cccc(C)c1)S(=O)(=O)c1cccc([N+](=O)[O-])c1	-8.7	-1.3%	4.1%	13.0%
CCOc1ccccc1/C=N/n1nnnc1N	.	0.2%	-1.3%	-4.9%
COc1ccccc1N=C(C)C1=C(O)COC1=O	7.3	-0.4%	1.7%	-2.4%

In another format: results already given.
GLA inh pH 4.5,Rango complex inh,Rango release inh,miR-21 reporter,SMILES
.,-1.6%,7.5%,.,CC1=CC(=O)[C@@H](O)[C@@H](c2ccccc2Br)N1C
-4.7,3.2%,-21.8%,-4.5%,COc1ccc2c(c1OC)C(=O)OC2CC(=O)c1ccc(O)cc1 (configuration not stated)
-0.7,-1.5%,-1.5%,-4.4%,O=C(CNc1cccc([N+](=O)[O-])c1)N/N=C/c1ccc(F)cc1
.,-1.3%,28.2%,-1.0%,CC1(C)Cc2c(cnn2-c2ccccc2)C(NC(=O)C2(C(N)=O)CC2)C1 (configuration not stated)

New compounds follow.
SMILES	GLA inh pH 4.5	Rango complex inh	Rango release inh	miR-21 reporter
CCn1c(SCC(=O)N/N=C(/C)c2ccncc2)nc2ccccc21	-1.7	5.1%	-6.0%	4.3%
O=S(=O)(CCN1CCN(c2ccccc2O)CC1)c1cc(Cl)ccc1Cl	.	2.0%	-11.6%	.
CCN1CCN(C(=O)c2cccc(OC3CCN(S(C)(=O)=O)CC3)c2)[C@@H](C)C1=O	.	1.3%	-16.1%	2.3%
Cc1ccc(C)c(C2=NNC(=NCc3ccccc3)SC2)c1	-17.4	-4.3%	-26.6%	12.0%
O=C(O)Cc1ccc(S(=O)(=O)N2CCCC2)s1	.	0.3%	6.1%	.
c1ccc(-c2ccc(-c3nccc4ccccc34)[nH]2)cc1	8.4	.	.	16.8%
CCn1c(-c2c[nH]c3ccccc23)n[nH]c1=S	1.1	-1.1%	-2.9%	-8.2%
CCCC(C)NC(=O)COC(=O)c1ccccc1SCC(=O)NC(C)CCC (configuration not stated)	7.5	-0.2%	-8.6%	0.1%
O=C(N/N=C/c1cccc(OC(=O)c2ccc3c(c2)OCO3)c1)c1cncc(Br)c1	-4.6	2.1%	-5.6%	-40.4%
CCN1/C(=C/C=C2/SC(=Nc3cccc4ncccc34)N(C)C2=O)Sc2ccccc21	.	-8.8%	1.4%	.
Cc1ccccc1N=C1NC(=O)/C(=C/c2cccn2-c2cccc(C(=O)O)c2)S1	-3.7	?	-5.6%	-6.2%
COc1ccccc1C1C(C(=O)NCc2ccccc2)=C(C)Nc2ncnn21 (configuration not stated)	2.6	3.9%	2.8%	-4.9%
CCn1c2ccccc2c2cc(/C=N/NC(=O)c3cccc(C)c3)ccc21	6.9	5.2%	-5.4%	-12.1%
COc1ccc2cc(C)c3nnc(SCC(=O)Nc4nc(-c5ccc(F)cc5)cs4)n3c2c1	-3.5	-5.1%	-0.7%	0.1%
O=[N+]([O-])c1cc(C(F)(F)F)cc([N+](=O)[O-])c1NCCNC(=S)Nc1ccc(Cl)c(Cl)c1	-12.8	-3.1%	-14.2%	28.8%
CCOc1cccc(SCc2noc(C(=O)NCC3CCCO3)c2C(=O)O)c1 (configuration not stated)	-15.5	4.6%	-4.6%	2.0%
Cc1c(C(=O)N2CCC(C)CC2)oc2ccc(S(=O)(=O)N3CCC4(CC3)OCCO4)cc12	1.3	-1.3%	4.0%	2.6%
CCOC(=O)N1CCN(c2cc(=O)n(-c3ccc(OCC)cc3)c(=O)[nH]2)CC1	9.3	-1.6%	-9.6%	-6.0%
O=C(NCCc1ccccc1)c1cc2ccccc2oc1=O	.	2.2%	1.6%	0.3%
Cc1ccc(CNC(=O)CCCc2c[nH]c3ccccc23)cc1	.	-0.7%	6.3%	-2.4%
CC1CCCCC1NC(=O)CSc1nnc(CNC(=O)c2ccccc2)n1C (configuration not stated)	1.3	2.6%	9.3%	-0.8%
Cc1ccc(-c2cc(C(=O)N/N=C/c3cccnc3)n[nH]2)o1	6.1	?	5.7%	-5.6%
CNS(=O)(=O)c1ccc(C)c(S(=O)(=O)NC)c1	-4.4	-6.2%	-9.4%	-2.7%
Cc1n[nH]c(C)c1S(=O)(=O)N(C)Cc1ccco1	.	-1.3%	-17.9%	.
Cc1ccc(N2CCN(S(=O)(=O)N(C)C)CC2)cc1Cl	-7.4	-2.2%	5.6%	-4.3%
C=CCN(CC=C)CCOc1ccc(OC(C)C)cc1	-10.2	-1.0%	5.7%	-18.6%
CCOC(=O)N1CCN(C(=O)CCCn2nnnc2CN2CCC(C)CC2)CC1	.	0.3%	25.5%	-0.9%
COc1cc(S(=O)(=O)N2CCOCC2)cc(C(=O)c2nccn2C)c1OC	2.4	-2.9%	-2.1%	-3.5%
CCCc1ccc(OCC(=O)NNC(=O)c2cccnc2)cc1	-8.5	0.3%	-9.7%	-1.1%
COc1ccc(NC(=O)N2CCCC(c3ccccc3)C2)cc1 (configuration not stated)	.	1.8%	-2.2%	-3.8%
Cc1ccc(C2=NN(CCC(=O)NC3CCCC3)C(=O)CC2)cc1	.	-0.2%	-11.9%	-4.6%
Cc1c(C#N)c2ccccc2n1CCOc1ccccc1F	-0.8	0.1%	4.8%	-5.3%
CCOc1cc2c(cc1/C=C/c1noc(C)c1[N+](=O)[O-])OC(C)C2 (configuration not stated)	.	?	?	2.4%
CC1CCCN(C(=O)c2ccc3ncsc3c2)C1 (configuration not stated)	.	0.3%	23.1%	.
COc1cccc2c1O/C(=N\O)C(C(=O)Nc1ccc(C)cc1)C2 (configuration not stated)	.	0.6%	-8.6%	9.9%
CC(=C/c1ccccc1)/C=N/NC(=O)c1cccs1	-4.9	-3.4%	-2.2%	-46.4%
O=C(O)C1C2C=CC(O2)C1C(=O)NCc1ccc2c(c1)OCO2 (configuration not stated)	0.7	3.7%	-4.2%	-3.8%
CCCNc1sc(S(=O)(=O)CCC)nc1S(=O)(=O)c1ccc(C)cc1	-1.2	-2.9%	-10.1%	-1.7%
CCc1ccc(NC(=O)CCn2nc(C)c(S(=O)(=O)N3CCCCC3)c2C)cc1	.	2.4%	-11.3%	7.5%&10.9%
COC(=O)NC(NC(=S)Nc1ccc([N+](=O)[O-])cc1)C(Cl)(Cl)Cl (configuration not stated)	-8.2	-0.7%	-6.3%	?
COCCNC(=O)C(OC(=O)CC1Sc2ccccc2NC1=O)c1ccncc1 (configuration not stated)	-5.9	0.2%	1.0%	-1.6%
CC(Nc1ccc(F)cc1F)C(=O)NC(=O)NC1CCCCC1 (configuration not stated)	-26.7	0.3%	-6.1%	-5.5%
Cc1ccc(S(=O)(=O)N(CC(=O)NCCSc2ccccn2)c2cc(C)cc(C)c2)cc1	-6.1	-2.6%	-11.3%	0.6%
CCn1cc(C(=O)NCCCOC)c2cc(OC)c(OC)cc2c1=O	-3.8	-0.9%	-8.1%	-8.5%
COc1cccc(CNCC(=O)NC(=O)NC2CCCC2)c1	.	0.1%	21.7%	.
CCOc1ccc(S(=O)(=O)N2c3ccccc3CC2C)cc1 (configuration not stated)	-4.8	3.0%	0.6%	22.2%
O=C(NCCS(=O)(=O)c1ccc(Br)cc1)c1ccccc1	.	-0.1%	0.0%	-0.1%
COCC(C)n1c(C)cc(C(=O)COC(=O)c2nc3nc(C)cc(C)n3n2)c1C (configuration not stated)	-2.7	3.6%	44.5%	-0.9%
NC(=O)c1nn(-c2ccc(Oc3ccccc3)cc2)c(=O)cc1O	9.6	5.2%	1.8%	-5.6%
CC(=O)N(CCO)Cc1cc2cc(C)cc(C)c2[nH]c1=O	-11.5	-3.0%	-11.8%	-3.8%
(next part)
SMILES	GLA inh pH 4.5	Rango complex inh	Rango release inh	miR-21 reporter
COc1cc(NS(=O)(=O)c2ccc(NC(=O)c3cccs3)cc2)nc(OC)n1	.	0.2%	17.4%	-0.3%
Nc1nc(Cl)nc2c1ncn2[C@H]1C[C@H](O)[C@@H](CO)O1	1.1&1.6	-1.3%	-11.6%	1.0%&9.2%
CCc1nccn1S(=O)(=O)c1cc(OC)c(Cl)cc1OC	7.7	-0.4%	-10.6%	-8.4%
C#CCNC(=O)C1=C[C@H](C2CC2)C[C@H](OCCCCO)O1	2.6	3.7%	-17.4%	0.0%
Cc1ccc(C(=O)COc2ccccc2-c2ccccc2)cc1C	-4.6	-2.1%	0.7%	-0.7%
N#CCCn1nc(-c2ccccc2)c2ccccc2c1=O	.	-0.4%	2.6%	-1.6%
COc1ccc2oc(/C=C/N(C)C)c(C(=O)c3ccc(Cl)cc3)c2c1	6.9	0.9%	-24.7%	-4.7%
CC(C)(C)c1ccc(-n2ncc3c2CCCC3NC(=O)c2cnccn2)cc1 (configuration not stated)	.	5.7%	10.8%	-10.6%
COc1cc(OC)cc(C(=O)NC(=S)Nc2ccc3c4c(cccc24)CC3)c1	0.7	5.9%	9.1%	-5.9%
N#Cc1ccc(CSc2nnc(Cc3cccs3)n2Cc2ccco2)cc1	-12.1	-0.7%	-10.8%	-3.3%

2 successive entries already listed:
SMILES	GLA inh pH 4.5	Rango complex inh	Rango release inh	miR-21 reporter
COc1cc(NS(=O)(=O)c2ccc(NC(=O)c3cccs3)cc2)nc(OC)n1	.	0.2%	17.4%	-0.3%
Nc1nc(Cl)nc2c1ncn2[C@H]1C[C@H](O)[C@@H](CO)O1	1.1&1.6	-1.3%	-11.6%	1.0%&9.2%

(further entries)
SMILES	GLA inh pH 4.5	Rango complex inh	Rango release inh	miR-21 reporter
CCc1ccc(NC(=O)C2CCCN(S(=O)(=O)c3c(C)[nH]c(=O)[nH]c3=O)C2)cc1 (configuration not stated)	-0.9	-0.9%	-1.0%	0.1%&4.2%
CCCc1cc(=O)oc2cc(OCC(=O)OC)cc(OCC(=O)OC)c12	1.7	.	.	-3.8%
CN(C)/C=C1\C(=O)ON=C1c1ccccc1	4.7	5.3%	19.4%	-1.4%
CCCN1CCCc2ccccc21	7.4	0.9%	-3.7%	9.2%
COc1ccccc1-c1nnc2sc(-c3ccc(N(C)C)cc3)nn12	3.0	?	?	20.1%
Cc1ccc(-c2nnc(-c3cccc4ccccc34)o2)cc1	.	1.3%	-0.9%	.
CC(C)C(NC(=O)c1ccccc1F)C(=O)Nc1nccs1 (configuration not stated)	-0.5	0.2%	0.2%	-1.2%
COc1ccc2occ(C(C)=O)c2c1	4.8	-0.8%	16.4%	-2.2%
O=C(CSc1nnnn1-c1ccc(F)cc1)Nc1ccccc1F	.	-5.0%	15.6%	-3.7%
CCOC(=O)c1sc(C)c2c(=O)n(Cc3ccc(Cl)cc3)c(C)nc12	-2.1	-3.5%	-19.4%	0.1%
CN(C)C(=O)c1ccc(NC(=O)COC(=O)CCN=C2NS(=O)(=O)c3ccccc32)cc1	.	-2.9%	-9.5%	.
O=C(COc1ccccc1F)Nc1ccc2[nH]c(=O)[nH]c2c1	.	-3.4%	3.6%	.
Cc1ccc(NC(=O)CSc2nn(-c3ccccc3)c(=S)s2)cc1S(=O)(=O)N(C)C	-6.7	-0.9%	-10.1%	26.8%
C/C=C/c1ccc(OCCCCN2C(=O)NC(C)(C)C2=O)c(OC)c1	-17.5	-0.4%	-4.2%	-9.9%
Cc1ccc(CN2CCN(C(=O)C3CCC3)CC2)cc1	2.2	8.7%	0.8%	-10.4%
COc1ccc2c(c1)CCc1cnoc1-2	.	-0.3%	30.8%	.
CC(=O)c1cc2c(cc1NS(=O)(=O)c1ccc(F)cc1)OCO2	2.7	-0.4%	-4.7%	-3.0%

The list is partial; rates above refer to the full screens.
